# Screening data (PubChem BioAssay)
# HPGD block – inhibitors of human 15-hydroxyprostaglandin dehydrogenase (HPGD); P15428; purified HPGD, NADH fluorescence kinetic, PGE2 substrate; Potency, µM, for the others: top-dose activity change, negative = inhibition, usual class: inhibitors; 150,000 compounds, 4.3% hits; active = well fitted inhibition curve with a large enough effect (not every such curve was filed as active); inconclusive = small, poorly fitted or top-dose-only effect, or another doubt; inactive = no such curve, though single readings can be large or run the other way;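 further: top concentration of the series not given in the record; plate controls included wells without enzyme; inactives centre near -10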
# Target sequence (P15428 whole entry, looked up): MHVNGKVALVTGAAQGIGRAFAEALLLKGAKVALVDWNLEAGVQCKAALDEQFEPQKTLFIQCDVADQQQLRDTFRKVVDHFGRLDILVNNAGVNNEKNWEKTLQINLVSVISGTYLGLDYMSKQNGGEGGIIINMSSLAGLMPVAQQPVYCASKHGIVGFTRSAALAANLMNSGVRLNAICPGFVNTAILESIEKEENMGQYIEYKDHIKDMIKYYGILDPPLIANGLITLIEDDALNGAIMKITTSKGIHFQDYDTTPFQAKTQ
#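 NADH formation kinetics: reaction with 30 uM PGE2 and 1 mM NAD+ (final), 20 nM enzyme, Tris-HCl pH 8 with Tween 20, after 15 min compound preincubation at room temperature. Fluorescence change, last versus first of five reads.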
# * hit, by the source's call; ? = inconclusive; & = joins results of further samples. On the % scale 0 is the no-effect control and ±100 the full control effect; potency means the concentration at half of the fitted maximal effect. These rows are one share of the data; rates above refer to the full screens.
cpd	HPGD block	smiles
1	-8.5%	CCC(C(=O)NCc1ccco1)N(C(=O)CNS(=O)(=O)c1ccccc1)c1ccc(OC)cc1 (stereo unspecified)
2	25.1µM*	COc1ccc(CCNC(=S)NC(=O)c2ccccc2)cc1OC
3	-29.0%	COCCNC(=O)c1ccc(C(=O)NCCOC)s1
4	-13.7%	CCC(C)(C)NC(=O)CN(Cc1ccc2c(c1)OCO2)C(=O)CCC(=O)Nc1ccccn1
5	?	O=C1c2ccccc2C(Nc2ccc3c(c2)OCO3)N1Cc1ccc2c(c1)OCO2 (stereo unspecified)
6	-6.2%	CC(=O)c1c(C)[nH]c(C(=O)OCC(=O)Nc2cccc(S(=O)(=O)N3CCCC3)c2)c1C
7	0.9%	CCOC(=O)c1c(NC(=O)CSc2nnnn2C)sc(CC)c1C
8	?	CCOC(=O)c1c(-c2ccccc2)csc1NC(=O)C1CCCO1 (stereo unspecified)
9	31.6µM*	COc1ccc(/C=N/NC(=O)C(=O)N2CCCC2)cc1OC
10	-20.2%	CCNC(=S)N/N=C(\C)c1cccc([N+](=O)[O-])c1

# By substructure: the entries above with four or more nitrogen atoms.
cpd	HPGD block	smiles
4	-13.7%	CCC(C)(C)NC(=O)CN(Cc1ccc2c(c1)OCO2)C(=O)CCC(=O)Nc1ccccn1
7	0.9%	CCOC(=O)c1c(NC(=O)CSc2nnnn2C)sc(CC)c1C
10	-20.2%	CCNC(=S)N/N=C(\C)c1cccc([N+](=O)[O-])c1

# Other compounds:
cpd	HPGD block	smiles
11	?	Cc1c2ccccc2c(CSC(=N)N)c2ccccc12
12	?	COC(=O)c1[nH]c2ccc(Cl)cc2c1NC(=O)CCN1CCOCC1
13	-22.7%	Cc1oc(-c2cc(Cl)cc(Cl)c2)cc1C(=O)NCCc1ccccc1
14	-25.9%	COc1ccc([N+](=O)[O-])cc1NC(=O)CSc1nc(C)cc(C)n1
15	-7.9%	O=C(Nc1ccon1)c1ccccc1Cl
16	?	COc1ccc(NC(=O)c2cccc(Cn3cc(Br)cn3)c2)cn1
17	-13.4%&-6.5%	COC(=O)[C@H]1C[C@@H]1[C@H](NC(=O)OCc1ccccc1)c1ccccc1
18	-22.8%	CC(C)(C)NC(=O)CC(c1ccccc1)c1ccccc1O (stereo unspecified)
19	-22.8%	O=C(CCCn1c(=S)[nH]c2cc3c(cc2c1=O)OCO3)N1CCN(c2ccc(F)cc2)CC1
20	-6.1%	CC12CCC(C(=O)N(CC(O)CN3CCCCC3)C1=O)C2(C)C (stereo unspecified)
21	-8.3%	CCN(CC)c1ccc(/C=N/N2CCN(Cc3ccc(C)cc3C)CC2)c(O)c1
22	-16.8%	CC(=O)N(C)c1nnc(-c2ccccn2)s1
23	-4.5%	COC(=O)[C@@H]1C[C@H]2CC[C@H](O)C[C@H]2N1Cc1ccc(Cl)cc1
24	-9.8%	Cc1ccc(S(=O)(=O)N2CCN(C(=O)C3Cc4ccccc4CN3C(=O)c3ccco3)CC2)cc1 (stereo unspecified)
25	-20.4%&-15.8%	CC(Cc1ccccc1)C(=O)NCCO (stereo unspecified)
26	-13.3%	CCN(CC)c1ncnc2sc(C(=O)N3CCN(c4ccccc4)CC3)c(C)c12
27	-7.7%	O=C(NCCC1=CCCCC1)c1ccc(F)c(S(=O)(=O)N2CCOCC2)c1
28	-9.6%	CCC1CCCCN1C(=O)CSc1nc(N)c(NC(=O)c2ccc(OC)c(OC)c2)c(=O)[nH]1 (stereo unspecified)
29	-4.0%	CC(=O)c1cccc(NC(=O)c2cc(-n3cnnc3)ccc2Cl)c1
30	-7.3%	COc1cccc(/C=N/Nc2nc3ccccc3n3cnnc23)c1O
31	-14.8%	COc1cc(C(=O)O/N=C2\C=CC(=O)C(C)=C2)cc(OC)c1OC
32	-12.5%	C(#CCN1CCOCC1)COCCOC(c1ccccc1)c1ccccc1
33	?	COc1ccccc1Cn1c(/C=C/c2ccccc2)nc2ccccc21
34	-14.7%	O=C(CSc1ncccc1C(=O)O)c1ccccc1
35	-13.9%	CC(C)OC(=O)c1ccc(NC(=O)c2ccccc2)cc1
36	-12.2%	COc1cccc(/C=C2\SC(=O)N(CCC(=O)NNC(=O)c3cccc(Cl)c3)C2=O)c1
37	-12.9%	CCOc1cc(C(=O)N2CCc3cc(OC)c(OC)cc3C2)ccc1OC(F)F
38	-2.4%	Cc1cccc(NC(=O)c2ccccc2OCC(=O)c2ccc(F)cc2)c1
39	?	CN1C(=O)c2cccc(NCCCCCCN3C(=O)c4ccccc4C3=O)c2C1=O
40	-9.0%	COc1ccc(C(CNC(=O)COc2ccccc2OC)N(C)C)cc1OC (stereo unspecified)
41	-11.9%	CCN(CC)S(=O)(=O)c1ccc2[nH]c(=O)cc(C(=O)Nc3ccc(C)c(S(=O)(=O)N(CC)CC)c3)c2c1
42	8.8%	O=C(O)c1ccc(-c2ccco2)n1Cc1ccccc1
43	-19.7%&-26.4%&-18.4%&-9.9%	Nc1ccc(C(=O)O)c(O)c1
44	-1.9%	Cc1ccc(OCc2nnc(SCC(=O)CC(=O)Nc3ccccc3)o2)cc1
45	-11.3%	Cc1c(/C=N/n2cnnc2)c2ccccc2n1C
46	-18.3%	COc1ccc(CCNC(=O)C2=COCCO2)cc1
47	15.8µM*	COc1cccc2c3c(c(=O)[nH]c12)CCC(C)(C)O3
48	-15.6%	COc1ccc(N(CC(=O)Nc2nc3ccc(C)cc3s2)S(=O)(=O)c2c(C)nn(C)c2C)cc1
49	-16.7%	O=C1Nc2cc(Cl)c(Cl)cc2N(O)N1c1ccc(Cl)cc1
50	-0.7%	CCN(C(=O)Nc1ccccc1OC)c1c(N)n(Cc2ccccc2)c(=O)[nH]c1=O
51	-20.3%	CCCNC(=O)C1CCN(S(=O)(=O)c2ccc(Br)cc2)CC1
52	-12.5%	CCN(CC)c1ncn(Cc2c(Cl)cccc2Cl)c2ncnc1-2
53	-2.6%	Cc1cccc(NC(=O)CC2S/C(=N/c3nccs3)N(C)C2=O)c1 (stereo unspecified)
54	-19.4%	COc1ccc(/C(C)=N/Nc2ncc(Cl)cc2Cl)c(O)c1
55	-14.2%	c1ccc(N2CCN(c3ccccc3)C2c2cccs2)cc1
56	0.0%	O=C1N(Nc2ccccc2)C(c2ccc(Br)cc2)C12CCCCC2 (stereo unspecified)
57	-20.7%	O=C(C(c1ccccc1)c1ccccc1)N1CCN(Cc2ccc(Br)cc2)CC1
58	-8.6%	Cc1ccccc1N1C(=O)C2C3CC(=O)C(c4ccccc43)C2C1=O (stereo unspecified)
59	-9.6%	CCc1ccc(NC(=O)CCNS(=O)(=O)c2cccc3nsnc23)cc1
60	-6.7%	C/C(CC(=O)Nc1ccc(Cl)c(C(F)(F)F)c1)=N\NC(=O)c1cccc(O)c1

# (cont.)
cpd	HPGD block	smiles
61	?	COc1ccc(OC)c2[nH]c(=O)c(CCNS(=O)(=O)c3ccc(C)cc3)cc12
62	28.2µM*	Cn1c(-c2sc3cc(C(F)(F)F)cnc3c2-c2cccnc2)n[nH]c1=S
63	3.1%	Cc1cc(C)c(C)c(S(=O)(=O)NNC(=O)c2cccc(S(=O)(=O)N3CCOCC3)c2)c1C
64	-10.2%	Cc1cc2nnc(SCC(=O)Nc3cc(S(=O)(=O)N4CCOCC4)ccc3Cl)n2c2ccccc12
65	-13.2%	CCOC(=O)c1cnc(NCc2ccccc2)nc1C
66	-9.1%	COc1ccc(CCNC(=O)CSc2nc(-c3ccco3)cc(C(F)(F)F)n2)cc1OC
67	-8.1%	CCC1(c2ccc(F)cc2)NC(=O)N(CC(=O)c2ccc[nH]2)C1=O (stereo unspecified)
68	-10.7%	COC(=O)c1ccc(COC(=O)c2ccccn2)cc1
69	-9.2%	O=C(CCSc1ccccc1Cl)Nc1cccc([N+](=O)[O-])c1
70	-11.3%	O=C(NNS(=O)(=O)c1ccccc1)c1ccc(O)cc1
71	3.98µM*	C=CCNC(=O)c1ccc(C)cc1Cl
72	?	Cc1cccc(OCC(=O)N/N=C/c2cc([N+](=O)[O-])ccc2N2CCOCC2)c1
73	15.8µM*	Cc1ccccc1NC(=S)NCc1ccc(Cl)cc1
74	-7.5%	CCNc1nc(SC)nc(N(C#N)CC(=O)OC)n1
75	-8.2%	CS(=O)(=O)c1ccc2nc(NC(=O)C3C4C=CC(C4)C3C(=O)O)sc2c1 (stereo unspecified)
76	-6.6%	COC(=O)C1CCN(C(=O)COC(=O)CCc2nc3ccccc3c(=O)[nH]2)CC1
77	-16.7%	COc1cc(C)ccc1OCCOCCOc1ccccc1[N+](=O)[O-]
78	-22.6%	COc1ccc(N2C(=O)C(CC(=O)O)S/C2=C\C(C)=O)cc1 (stereo unspecified)
79	-7.1%	COc1ccc(Cc2nnc(SCC(=O)Nc3nc(C)cs3)o2)cc1
80	?	COc1ccc(CN(Cc2cc3ccc(C)cc3[nH]c2=O)Cc2nnnn2C2CCCC2)cc1
81	?	O=C(Nc1ccccc1-c1nnn(CC(=O)N2CCCc3ccccc32)n1)c1ccc(Cl)cc1
82	0.2%	CCOc1ccc(OCCCCNCCN)cc1
83	-7.4%	CCOC(=O)c1cc(CC)sc1NC(=O)Cc1ccsc1
84	-5.6%	CC(C)(C)OC(=O)C(Cc1ccc(OC(C)(C)C)cc1)NC(=O)CNC(=O)OCc1ccccc1 (stereo unspecified)
85	-10.4%	Cc1ccc(C)c(N2CCN(CC(=O)Nc3ccc([N+](=O)[O-])cc3C(=O)Nc3ccccc3F)CC2)c1
86	-26.8%	NS(=O)(=O)c1ccc(CCNC(=O)COC(=O)CCSc2ccc(Cl)cc2)cc1
87	-7.2%	CCOC(=O)C1CCCN(C(=O)C(C)Oc2ccc(Cl)cc2Cl)C1 (stereo unspecified)
88	-6.4%	CCOC(=O)c1c(CN2CCCCC2)n(C)c2cc(Br)c(O)cc12
89	-5.7%	COc1ccc(N2CCN(C(c3ccccc3)c3nnnn3Cc3ccc(F)cc3)CC2)cc1 (stereo unspecified)
90	-17.1%	Cc1cccc(CN2CCNC2=O)c1
91	-25.6%	COc1ccc(CCNC(=O)CSc2nnc(-c3cccc(C)c3)o2)cc1OC
92	-5.7%	CCC(C)(C)NC(=O)C(c1ccc(C)cc1)N(CC1CCCO1)C(=O)CNC(=O)c1cccs1 (stereo unspecified)
93	-10.2%	O=C(CCS(=O)(=O)Cc1ccccc1F)N1CCc2ccccc2C1
94	-8.6%	Cc1noc(C)c1C(=O)N1CCc2ccccc2C1
95	-14.8%	Nc1ccc2oc(-c3ccccn3)nc2c1
96	-12.3%	Cc1cc(-n2c(C)cc(C(=O)CSc3nnnn3-c3ccccc3)c2C)no1
97	-6.1%	CC(C)COc1ccc(-c2cc(C(=O)NN)[nH]n2)cc1
98	2.2%	O=C(NCCC1=CCCCC1)N[C@@H](Cc1ccccc1)C(=O)O
99	?	COc1ccc(CCNc2cc(C)nc3c(-c4ccc(Cl)cc4)cnn23)cc1OC
100	-12.9%	Cn1cccc1/C=C1\SC(=S)N(NC(=O)c2ccccc2)C1=O
101	-6.8%	O=C(c1cccn(Cc2ccc(Cl)c(Cl)c2)c1=O)N1CCOCC1
102	?	Cc1ccc2nsnc2c1NC(=O)c1sc2ccccc2c1Cl
103	-15.1%	Cc1onc(-c2ccccc2)c1C(=O)Nc1nc(-c2ccccc2)cs1
104	?	COc1ccc(/C=N/NC(=O)c2ccncc2)cc1CSc1nc2ccccc2s1
105	?	Cc1cccc(C)c1OCC(O)Cn1c2ccccc2c2ccccc21 (stereo unspecified)
106	-7.5%	O=C(COC(=O)CCCSc1nc2ccccc2[nH]1)Nc1ccc(Cl)cc1
107	-9.3%	CC(C)CC(c1nnnn1CC1CCCO1)N1CCN(c2cccc(Cl)c2)CC1 (stereo unspecified)
108	-1.8%	CCOc1cc(C(=O)NC(C)CC)cc(OCC)c1OCC (stereo unspecified)
109	-4.0%	Cc1ccc(-c2nnc(SCC(=O)Nc3cccc(C(=O)N4CCOCC4)c3)n2C)cc1
110	-5.9%	CC(CC(=O)N1CCN(c2ccccc2)CC1)c1ccccc1 (stereo unspecified)

# Continued.
cpd	HPGD block	smiles
111	-5.1%	O=C(OCc1ccc2c(c1)OCO2)c1ccc(S(=O)(=O)N2CCCCC2)cc1
112	-13.7%	COc1ccc(NC(=O)Cn2c(=O)n(-c3ccc(OC)cc3OC)c(=O)c3c(C)c(C)sc32)cc1
113	-4.8%	O=C(NC1=NC2CCCCC2N1)c1ccccc1 (stereo unspecified)
114	-11.4%	COCCn1c(C)nc2oc3ccc(Br)cc3c(=O)c2c1=O
115	-15.7%	COCCn1c(C)cc(C(=O)COC(=O)c2ccc(N3CCCC3=O)cc2)c1C
116	-18.4%	COc1ccccc1-c1cc(C(=O)Nc2cc(C)nn2-c2ccccc2)no1
117	?	Cc1cc(=O)oc2cc3c(cc12)OCCO3
118	-22.4%	CCn1c(SCC(=O)N2c3ccccc3CCc3ccccc32)nnc1-c1ccc(OC)cc1
119	-3.6%	CC1Cc2ccccc2N1C(=O)Cn1cnc2ccccc2c1=O (stereo unspecified)
120	-19.2%	COc1ccc(Nc2nnc(-c3ccc(N4CCOCC4)c([N+](=O)[O-])c3)c3ccccc23)cc1
121	-19.1%	Cc1ccc(C(=O)Nc2cccc(C(=O)NCc3ccccc3)c2)o1
122	-5.1%	O=C(COC(=O)c1ccccc1C(=O)c1ccc(Cl)cc1)NCc1ccccc1
123	-2.7%	CC(=O)c1c(N2CCN(Cc3ccccc3)CC2)nc(=S)n(Cc2ccccc2)c1C
124	-6.9%	COc1ccc(C(=O)NCC(c2ccc(F)cc2)N2CCOCC2)cc1S(=O)(=O)N1CCCC1 (stereo unspecified)

# Structures above printed as active in HPGD block.
cpd	HPGD block	smiles
2	25.1µM*	COc1ccc(CCNC(=S)NC(=O)c2ccccc2)cc1OC
9	31.6µM*	COc1ccc(/C=N/NC(=O)C(=O)N2CCCC2)cc1OC
47	15.8µM*	COc1cccc2c3c(c(=O)[nH]c12)CCC(C)(C)O3
62	28.2µM*	Cn1c(-c2sc3cc(C(F)(F)F)cnc3c2-c2cccnc2)n[nH]c1=S
71	3.98µM*	C=CCNC(=O)c1ccc(C)cc1Cl
73	15.8µM*	Cc1ccccc1NC(=S)NCc1ccc(Cl)cc1
